Screens: PubChem BioAssay, several laboratories
B2AR ag – human beta-2 adrenergic receptor agonism by FAP | response, % (no concentration beside the values) | P07550 | Am2.2-beta2AR cells, FAP receptor internalization, flow cytometry; reference of the scale not given here | 0.43% of 340,000 active;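 active = response above a set limit, near 3 SD of response in nonfluorescent compounds, cut at about 42% in these data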;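 also: stock transfer was 100 nL into about 11 µL; a reference agonist was the positive control; negative values mostly stem from fluorescent compounds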
Ecoli rRNA inh – selective bacterial rRNA inhibition in E. coli; GFP signal change (wild-type ribosome), % (test concentration not listed); E. coli WT GFP vs humanized-ribosome RFP mutants, fluorescence, 24 h; stronger effect = lower value; DMSO median 0, no signal -100; 1.6% of 350,000 active;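 active = significant combined selectivity score with lowered wild-type GFP, culture density cut under 30%, mutant RFP and density less affected; inactive = any of these conditions unmet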; also: one replicate is shown; some compounds called inactive have numbers as strong as hits
LANA-H2B inh – blocks KSHV LANA binding to histone H2A/H2B | 0.6% of 320,000 active | AID 2629 | inhibition, % (test concentration not listed) | Q9QR71 | cell-free LANA-H2A/H2B peptide, fluorescence polarization; in the data active = inhibition mostly above about 10%, no sharp cut-off; inactive = mostly below about 6.7%;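 also: stock transfer was 7.5 nL into about 10 µL; 0% = median of vehicle wells and 100% = median of positive control wells; one replicate is shown; the record names a cut of 25% in any replicate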
Target sequence (Q9QR71 whole entry, looked up): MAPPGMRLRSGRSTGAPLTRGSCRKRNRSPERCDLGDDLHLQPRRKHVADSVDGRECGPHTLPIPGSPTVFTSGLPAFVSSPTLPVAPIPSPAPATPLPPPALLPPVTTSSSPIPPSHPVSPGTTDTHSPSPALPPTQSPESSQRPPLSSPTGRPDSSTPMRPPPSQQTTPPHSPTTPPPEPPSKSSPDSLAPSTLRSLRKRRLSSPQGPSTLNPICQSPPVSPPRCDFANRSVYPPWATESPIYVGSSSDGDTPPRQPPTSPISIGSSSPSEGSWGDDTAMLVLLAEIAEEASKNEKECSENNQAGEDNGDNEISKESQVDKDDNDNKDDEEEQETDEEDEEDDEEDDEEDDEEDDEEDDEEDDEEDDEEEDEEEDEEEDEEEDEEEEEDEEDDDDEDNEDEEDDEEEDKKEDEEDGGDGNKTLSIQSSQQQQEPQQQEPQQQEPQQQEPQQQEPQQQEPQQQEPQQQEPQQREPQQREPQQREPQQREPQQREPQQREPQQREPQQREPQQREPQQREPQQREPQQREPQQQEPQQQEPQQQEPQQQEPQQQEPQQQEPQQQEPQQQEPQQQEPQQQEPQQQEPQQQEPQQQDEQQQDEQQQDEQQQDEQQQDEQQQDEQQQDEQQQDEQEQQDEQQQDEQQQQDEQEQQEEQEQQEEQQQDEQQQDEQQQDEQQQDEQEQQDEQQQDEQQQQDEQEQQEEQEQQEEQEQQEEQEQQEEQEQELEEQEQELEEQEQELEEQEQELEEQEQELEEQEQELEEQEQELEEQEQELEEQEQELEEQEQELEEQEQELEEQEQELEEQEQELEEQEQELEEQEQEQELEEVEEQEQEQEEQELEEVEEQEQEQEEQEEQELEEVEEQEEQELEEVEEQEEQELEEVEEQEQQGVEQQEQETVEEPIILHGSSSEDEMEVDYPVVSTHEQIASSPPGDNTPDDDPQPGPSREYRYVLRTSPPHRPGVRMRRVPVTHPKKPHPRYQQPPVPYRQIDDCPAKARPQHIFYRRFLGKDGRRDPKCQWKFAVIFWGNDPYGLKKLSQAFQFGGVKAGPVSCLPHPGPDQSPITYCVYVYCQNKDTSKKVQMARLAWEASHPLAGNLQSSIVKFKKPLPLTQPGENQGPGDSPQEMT
T cruzi inh – T. cruzi replication inhibition | T. cruzi beta-gal in NIH3T3, luminescence, 90 h | inhibition, % (concentration not given with the values) | 1.4% of 300,000 active | AID 1885;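 active = mean inhibition across valid replicates above about 55%, limit read from the data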;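 also: signal also drops with host cell toxicity which is not excluded here; 0% = plate median of DMSO wells and 100% = zero luminescence signal; higher percent means less beta-gal luminescence so fewer parasites; stock transfer was 50 nL into about 50 µL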
Calb FLC – affects C. albicans growth with fluconazole. 0.57% of 300,000 active. growth inhibition, % (test concentration not listed). C. albicans CaCi-2 (fluconazole-resistant clinical isolate) + fluconazole, Alamar Blue growth, 48 h;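 active = most replicates above 75%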;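 also: all wells also contain fluconazole at 8 µg/ml as a sub-toxic cotreatment; 0% = median of DMSO wells and 100% = median of geldanamycin control wells; wells of about 8 µL received 7.5 nL stock; the first replicate is given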
A1 inh – inhibitors of the anti-apoptotic protein A1, read as caspase activation | MEF A1-2A-BIM cells, Caspase-Glo 3/7 luminescence, 3 h; percent of clofoctol response, vehicle zero | caspase activation, % (concentration not given with the values) | 0.066% of 330,000 active | AID 2462;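 active = over half of replicate activation scores above 10%, or exactly half above 10 with the replicate mean above 10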;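 also: wells of about 30 µL received 50 nL stock; many hits fall short of the cut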
Beta cell apopt – blocks beta cell apoptosis; INS-1E cytokine-induced death, ATP luminescence, 48 h; percent of positive-control rescue, neutral wells zero; protection from apoptosis, % (no concentration beside the values); 0.8% of 300,000 active;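 active = all replicates at 75% or more, or half of them and the mean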;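 also: 0% = cytokine-treated negative control wells and 100% = positive control rescue; higher means more ATP so stronger rescue from cytokine killing; wells of about 40 µL received 100 nL stock; the first replicate is given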
ALR inh – human ALR oxidase inhibition via reduced H2O2; P55789; purified ALR, DTT oxidation, H2O2 HRP-luminol luminescence; inhibition, % (concentration not given with the values); 3.8% of 290,000 active;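 active = mean and each replicate at 75% or more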;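 also: stock transfer was 7.5 nL into about 7.5 µL; 0% = neutral wells and 100% = wells with inactivated enzyme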
Ecoli rRNA inh OD600 – further read-out of Ecoli rRNA inh, marked with its call; OD600 change, %; measured here: OD600 growth;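 optical density of the mix in the first replicate; 0 = DMSO median and -100 = no signal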
Ecoli rRNA inh RFP – also measured in Ecoli rRNA inh; calls as there; RFP signal change, %; measured here: RFP humanized mutant strains;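 first replicate; 0 = DMSO median and -100 = no signal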
Active calls of the source: *; nt = not tested or not shown; + = active, no number. Not all compounds are listed; rates above refer to the full screens.

SMILES	B2AR ag	Ecoli rRNA inh	Ecoli rRNA inh OD600	Ecoli rRNA inh RFP	LANA-H2B inh	T cruzi inh	Calb FLC	A1 inh	Beta cell apopt	ALR inh
Nc1nc(CSc2ncn(-c3ccccc3)n2)cs1	-10	-2	-2	4.9	-2.8	3	-4	-1.2	-5	98*
COC(=O)c1ccc(NC(=O)C[n+]2ccccc2)cc1	-2	10	14	0.3	-4.9	-10	10	-0.5	-5	-3
COc1cc(C(=O)N2CCN(c3ncnc4sc(C)c(C)c34)CC2)cc(OC)c1OC	5	nt	nt	nt	-0.7	-18	5	-0.5	43	3
CCCn1c(O)c(N=NC(=O)CNC(=O)c2ccncc2)c2ccccc21	-15	-8	-11	-2.0	-5.8	-5	0	0.1	nt	1
O=C(Nc1ccccc1C(=O)N1CCCCC1)c1cc(F)c(F)cc1Cl	3	14	12	0.0	-5.3	2	12	0.3	-4	11
CC(C)CCN1NC2(CCC(C)CC2)NC1=S (stereo not drawn)	-3	0	-3	-0.8	-2.2	-4	-1	-0.2	-5	nt
CC(=O)N(CC1CCCO1)c1nnc(-c2ccccn2)s1 (stereo not drawn)	-9	nt	nt	nt	2.1	-14	6	0.5	-2	-22
COc1ccc(OC(C)C(=O)N(C)Cc2nc(-c3ccc(OC)cc3)no2)cc1 (stereo not drawn)	0	-9	-30	0.2	-0.5	9	1	0.3	-6	nt
O=C(OCc1cc(Cl)ccc1OC(F)F)c1ccc([N+](=O)[O-])o1	nt	nt	nt	nt	-0.8	-1	0	0.1	-6	-16
O=C(NCCc1ccco1)C(=O)NCC1OCCCN1S(=O)(=O)c1cc(F)ccc1F (stereo not drawn)	-4	1	4	0.1	0.4	-2	-1	1.3	-12	-5
N=C1/C(=C\c2ccc(-c3ccc(C(=O)O)cc3)o2)C(=O)N=C2SC=C(c3ccccc3)N12	6	2	2	1.3	nt	3	0	nt	nt	nt
CCc1ccc2nc3nc(C)cc(C)c3c(N)c2c1	20	0	-8	-8.9	-5.4	13	-1	0.1	26	-11
COc1cccc(NC(=O)CCS(=O)(=O)c2ccc3c(c2)oc(=O)n3C)c1	-6	6	6	3.0	1.4	8	-1	-0.1	-2	-6
Cc1ccc(NC(=O)CNS(=O)(=O)c2ccc(F)cc2)cc1C	-8	-11	-6	3.2	-0.8	8	4	-0.6	1	-21
Cc1ccnc(NC(=O)CNC(=O)c2sc3ccccc3c2Cl)c1	-4	3	8	0.4	-0.3	11	-1	0.3	-5	5
COCCn1c(=NC(=O)C(C)(C)C)sc2cc([N+](=O)[O-])ccc21	5	5	1	-2.4	-0.4	14	6	0.7	8	-31
CCOc1ccc2nc(NCCO)[nH]c2c1	4	nt	nt	nt	-6.0	7	3	0.0	2	43
CC(C)(C)C(=O)N1CCC(O)(CS(=O)(=O)Cc2ccccc2)CC1	-3	-12	9	1.5	2.0	-6	0	-0.6	-1	nt
CCCCSc1nnc(-c2cc3c(C(F)(F)F)nn(C)c3s2)n1C	-6	nt	nt	nt	-1.0	13	9	-1.9	1	1
CCCc1n(CC(O)COC2CCCCC2)c2ccccc2[n+]1C (stereo not drawn)	16	31	15	1.3	-0.9	-17	-18	1.1	13	3
C=CCOc1ccc(/C=N/NC(=O)CC(=O)NC2CCCCC2)cc1	-21	4	4	-0.7	2.1	-5	-7	0.2	-19	1
CCc1cccc2c(C(=O)CN3C(=O)C(=O)N(C4CCCC4)C3=O)c[nH]c12	-12	-10	-38	0.9	2.7	nt	nt	-1.3	-3	-9
Cc1cccc(C)c1OCC(=O)Nc1ccccc1N1CCCCC1	12	4	0	-2.2	-1.6	27	-1	-1.2	-8	0
CCc1ccc(CN2CCCC(CNC(=O)c3cc(OC)cc(OC)c3)C2)cc1 (stereo not drawn)	-3	-4	-14	-0.2	0.6	45	-12	0.3	nt	nt
Cc1csc(=Nc2ccccc2)n1C	1	7	8	2.1	1.6	-25	-7	0.3	3	99*
Cc1ccc2[nH]c3c(=O)n(CC(=O)NCCCN4CCN(c5ccc(F)cc5)CC4)ncc3c2c1	1	2	3	2.0	3.6	8	7	-0.5	-1	0
O=C(CNC(=S)NC(=O)c1ccc(Cl)cc1)c1ccccc1	-1	-28	-39	-6.4	-1.1	-7	-2	-1.3	-3	3
O=C(NN=C1c2ccccc2-c2ccccc21)c1ccccc1	-9	-32*	-16*	-5.8*	1.7	11	13	0.8	15	-31
c1csc(C2=Nn3c(nnc3-c3ccncc3)SC2)c1	8	nt	nt	nt	0.4	5	0	0.5	-24	17
CC(/C=N\NC(=O)c1ccc(C)nc1)=C\c1ccccc1	-5	14	14	-1.0	-2.1	-20	-6	1.4	6	-8
CNC(=O)C1C2C=CC3(O2)C1C(=O)N(CCOC)C3C(=O)NCc1ccc(OC)cc1 (stereo not drawn)	-7	nt	nt	nt	1.2	3	-5	0.1	4	23
CCc1ccc(-c2nc(CS(=O)CC(=O)NC3CC3)c(C)o2)cc1 (stereo not drawn)	0	-1	1	-1.3	-0.7	-9	-6	-0.3	nt	98*
Cc1ccc2nc(Cl)c(C3CC(c4cccs4)=NN3C(=O)CCC(=O)O)cc2c1 (stereo not drawn)	-10	11	9	3.8	-6.6	-3	15	-0.2	-1	1
COc1ccc(OC)c(S(=O)(=O)Nc2cc3c4c(c2)C(C)C(=O)N4CCC3)c1 (stereo not drawn)	-1	6	2	0.0	1.9	-6	-3	-0.2	2	-5
CCC(C)Sc1nnc(NC(=O)C2CCN(C(=O)c3ccco3)CC2)s1 (stereo not drawn)	3	0	-14	1.9	3.8	-17	22	-0.9	4	3
O=C(NCC1CCCO1)C1CCN(C(=O)c2ccc(Cl)cc2)CC1 (stereo not drawn)	9	nt	nt	nt	1.1	-6	-1	-1.2	-4	nt
NS(=O)(=O)c1ccc(CNS(=O)(=O)c2cc(C(=O)O)ccc2Cl)cc1	-5	12	16	-1.1	-2.7	7	4	0.4	-4	-1
O=C(NCCc1ccc(Cl)cc1)c1cnccn1	-3	6	5	0.9	+	-8	-8	-0.1	0	-2
CCC(=O)c1ccc(OCC(=O)OCC(=O)N(C)CC(=O)Nc2ccc(F)cc2)cc1	-1	3	5	0.3	7.1	-5	-1	-0.1	nt	-2
CCCN(c1ccc(OCC)cc1)S(=O)(=O)c1ccc2c(c1)CCN2C(=O)CCC(=O)O	5	nt	nt	nt	2.1	3	11	-0.5	-10	4
Cc1ccc(CC(=O)Nc2cccc(S(=O)(=O)N3CCOCC3)c2)cc1	22	-3	-6	-0.4	1.7	0	-14	0.4	-2	0
CCOC(=O)c1[nH]c2ccccc2c1NC(=O)C1CCCCC1	0	nt	nt	nt	0.4	9	2	0.6	8	-7
O=c1c(OC2OC(CO)C(O)C(O)C2OC2OC(CO)C(O)C(O)C2O)c(-c2ccc(O)cc2)oc2cc(O)cc(O)c12 (stereo not drawn)	3	nt	nt	nt	6.3	nt	nt	0.4	nt	23
COc1cc2oc(=O)ccc2cc1[C@H](O)[C@@H](O)C(C)(C)O	20	0	0	-0.2	-3.2	nt	nt	0.5	2	-4
CN=C(C)c1c(O)c2ccccc2oc1=O	1	nt	nt	nt	-3.6	-9	-9	-0.3	11	-5
COc1cccc(N2CCN(C(=O)c3ccc(CSc4nc5ccncc5[nH]4)cc3)CC2)c1	-7	-12	-13	-2.7	-0.6	29	15	-1.1	20	nt
CCCCOC(=O)c1ccc(NC(=S)NC(=O)c2c(Cl)cnn2C)cc1	1	nt	nt	nt	8.2	3	-1	0.2	-2	-4
CC(C)(C)n1cnc(C(N)=O)c1N	-7	11	13	0.8	1.1	-7	3	-1.3	0	-2
COc1ccccc1-c1ccc(SCC(=O)Nc2cc(C)on2)nn1	4	-12	-10	-2.0	0.1	-7	3	-0.2	-5	7
COc1cccc(N(C(C)=O)c2nc(C)cc(C)c2C#N)c1	-6	nt	nt	nt	5.8	-8	4	1.0	2	-16
The list goes on.
SMILES	B2AR ag	Ecoli rRNA inh	Ecoli rRNA inh OD600	Ecoli rRNA inh RFP	LANA-H2B inh	T cruzi inh	Calb FLC	A1 inh	Beta cell apopt	ALR inh
CC(=O)c1ccc(NC(=S)NCCc2cccc(Cl)c2)cc1	-5	-54	-81	-30	-4.1	6	-11	0.0	-3	0
Cc1nnc(-n2cnc3ccccc32)c2ccccc12	-8	nt	nt	nt	4.0	1	-1	-0.3	-4	nt
Nc1ncc(Br)cc1S(=O)(=O)Nc1ccccc1F	0	3	-3	1.1	3.7	-4	-1	0.0	-1	4
O=C(C/C=N/OCc1c(Cl)cccc1Cl)c1ccccc1	8	nt	nt	nt	-3.9	12	-14	0.6	4	-3
COC(=O)c1cc2ccc(OC)c(OC)c2c(=O)s1	50*	nt	nt	nt	4.3	1	0	-0.9	2	-6
COc1ccc(Nc2cc(C)nc(-n3nc(C)cc3C)n2)cc1	30	nt	nt	nt	0.7	12	48	-0.3	49	27
CC(NC(=O)c1cc(F)c(F)cc1Cl)c1ccncc1 (stereo not drawn)	4	11	3	0.0	-3.5	-12	-8	-0.6	-12	nt
O=C(O)CCN1C(=O)C2C3C=CC(C2C1=O)C1C(=O)N(CCC(=O)O)C(=O)C31 (stereo not drawn)	-11	10	14	0.0	3.9	3	5	-0.5	-5	16
CCC(C)NC(=O)c1ccc2c(Cl)c3c(nc2c1)CCC3 (stereo not drawn)	-4	-8	-5	2.0	-0.3	-9	0	-9.6	1	0
O=C(OCc1csc(-c2ccccc2)n1)c1cccs1	3	nt	nt	nt	-6.1	-11	4	-8.1	-1	-23

Structures listed above printed as active in LANA-H2B inh:
Compound,B2AR ag,Ecoli rRNA inh,Ecoli rRNA inh OD600,Ecoli rRNA inh RFP,LANA-H2B inh,ALR inh
O=C(NCCc1ccc(Cl)cc1)c1cnccn1,-3,6,5,0.9,+,-2

The list goes on:
SMILES	B2AR ag	Ecoli rRNA inh	Ecoli rRNA inh OD600	Ecoli rRNA inh RFP	LANA-H2B inh	T cruzi inh	Calb FLC	A1 inh	Beta cell apopt	ALR inh
CCOC(=O)CC(=O)CSc1nc2c(cc1C#N)CCC2	0	nt	nt	nt	4.7	3	3	-0.9	nt	-16
Cc1nc(CNS(=O)(=O)c2ccc(F)cc2)cs1	-2	10	11	3.7	-2.4	-15	2	0.7	-5	-5
C=CCN(Cc1nc(-c2ccccc2)no1)C(=O)c1ccco1	17	6	10	0.6	13	2	-1	0.0	-3	3
Cc1cc(C)n(-c2ccc(C(=O)OCc3nnc(-c4ccccc4)o3)cc2)n1	2	nt	nt	nt	-3.1	-23	40	-1.4	1	-1
CCC(C)C(=O)Nc1nnc(SCC(=O)Nc2ccc(F)cc2)s1 (stereo not drawn)	-5	-5	-1	0.4	-6.6	8	-4	0.0	6	0
O=C(/C(N=Nc1cccc([N+](=O)[O-])c1)=C(/O)c1ccc(Br)cc1)C(F)(F)F	nt	nt	nt	nt	-5.1	24	-3	-0.3	105*	67
CCC1CCCCN1Cc1ccc(CNC(=O)CCc2nnc3ccc(N4CCCCC4)nn23)o1 (stereo not drawn)	-9	-1	-6	1.2	5.3	8	-5	1.3	-1	-5
COc1cc(CC(CC(=O)O)CC(C)OCc2ccccc2)cc(OC)c1 (stereo not drawn)	6	nt	nt	nt	0.6	10	1	0.9	-3	32
NC(N)=NS(=O)(=O)c1ccc(N/C=C/C(=O)c2ccc(Cl)c(Cl)c2)cc1	5	4	7	2.0	-0.9	-3	-7	0.1	-2	-4
COCCCNCCCCOc1ccc(Br)cc1Cl	18	-1	-7	1.7	-3.4	41	-8	-1.4	-3	-4
